High-throughput results from PubChem.
RGS16-Gao = modulates binding between human RGS16 and Galphao | O15492+P09471 | bead-based flow cytometry RGS16-Galphao binding, fluorescence; actives lie on both sides | binding response (% of control), % at 10 µM | actives 0.38% (n = 220,000) | AID 1441;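 active = below 25% or above 175%, edge rows of some plates excepted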;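 also: Galphao activated by GDP with aluminum fluoride before binding; 100% = wells without compound and 0% = beads without RGS; some results beyond the cut were filed as inactive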
Insulin prom inh = TRM-6 insulin promoter activity inhibition | TRM-6 cells (human fetal islet line), insulin promoter-eGFP reporter, imaging; reporter expression induced with tamoxifen | inhibition, % at 2 µM | actives 0.9% (n = 130,000) | AID 1273;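 active = inhibition above the mean plus 3 SD, with well images judged a real hit on visual review, cut at about 60% in these data, passing the limit was not always enough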
PKD1 kinase inh = blocks activity of human protein kinase D1. AID 797. actives 0.056% (n = 200,000). PKD1 kinase fluorescence polarization assay. Q15139. inhibition, %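 (about 10 µM by stock and volumes)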;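 active = inhibition of 50% or more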;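 also: controls were vehicle for no effect and a reference inhibitor for full effect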
Target sequence (Q15139 whole entry, looked up): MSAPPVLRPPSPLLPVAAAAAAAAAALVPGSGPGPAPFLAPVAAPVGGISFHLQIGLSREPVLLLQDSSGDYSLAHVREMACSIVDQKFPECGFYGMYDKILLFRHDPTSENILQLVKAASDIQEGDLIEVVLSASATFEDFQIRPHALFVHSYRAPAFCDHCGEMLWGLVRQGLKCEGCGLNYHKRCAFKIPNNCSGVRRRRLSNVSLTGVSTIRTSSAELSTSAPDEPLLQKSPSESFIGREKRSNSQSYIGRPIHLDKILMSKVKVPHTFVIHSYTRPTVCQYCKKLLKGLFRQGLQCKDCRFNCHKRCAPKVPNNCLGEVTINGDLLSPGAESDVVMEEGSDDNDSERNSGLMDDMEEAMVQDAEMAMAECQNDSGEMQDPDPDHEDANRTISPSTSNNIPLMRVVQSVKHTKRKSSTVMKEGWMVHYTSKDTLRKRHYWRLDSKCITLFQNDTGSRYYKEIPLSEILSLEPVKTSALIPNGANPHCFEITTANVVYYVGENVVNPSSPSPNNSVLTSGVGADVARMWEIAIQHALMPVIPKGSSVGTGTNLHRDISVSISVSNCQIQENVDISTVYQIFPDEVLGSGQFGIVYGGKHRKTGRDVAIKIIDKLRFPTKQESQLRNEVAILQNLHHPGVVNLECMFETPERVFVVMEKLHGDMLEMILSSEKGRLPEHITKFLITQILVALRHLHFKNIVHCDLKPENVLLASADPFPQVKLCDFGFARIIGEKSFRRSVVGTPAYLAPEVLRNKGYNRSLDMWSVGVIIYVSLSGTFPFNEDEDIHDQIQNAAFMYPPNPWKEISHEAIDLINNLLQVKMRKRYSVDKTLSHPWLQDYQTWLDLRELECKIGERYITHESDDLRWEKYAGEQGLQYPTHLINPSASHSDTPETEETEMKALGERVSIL
HSV augment = HSV replication enhancement. HSV replication augmentation in cells, fold increase. maximum fold increase. actives 0.005% (n = 220,000);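 active = peak rise of 1.5-fold or more in the series; tested in PC3 cells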;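 also: first round at 10 µM; read as green reporter fluorescence; hits show the peak of a series up to 25 µM; 1 = signal of infected wells without compound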
GALR2 agonist = GALR2 (human) receptor agonism | O43603 | GALR2-expressing cells, agonist activation read-out | activation, %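 (tested at 5 µM)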 | actives 0.48% (n = 140,000) | AID 803;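 active = above mean plus 3 SD of all compounds, about 5% in these data, not always enough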;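 also: 0% = vehicle buffer wells and 100% = reference agonist at full effect; tested in CHO reporter cells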
Insulin prom inh cell count = also measured in Insulin prom inh; calls as there; normalized cell count, %; measured here: cell count, toxicity; reference of the scale not given here;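 cells exposed to compound for 48 h; stained nuclei by imaging scaled within each plate; lower means fewer cells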
HSV augment primary fold = recorded beside HSV augment, whose call it bears; fold increase; compound at 10 µM; measured here: primary screen fold increase 10 uM; tested in PC3 cells;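 GFP signal in the first replicate; 1 = infected wells without compound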
The depositor's hits bear a star; i = inactive; · = not tested or not shown. Compounds as they come; any-hit rate near 1.3%.

SMILES | RGS16-Gao | Insulin prom inh | Insulin prom inh cell count | PKD1 kinase inh | HSV augment | HSV augment primary fold | GALR2 agonist
Cc1ccc(C(C[N+](=O)[O-])c2c(C)cc3ccccn23)cc1 (stereo unspecified) | 94.6 | -37.7 | 92.3 | 4.0 | i | 0.75 | -1.3
CC(C(O)C12CC3CC(CC(C3)C1)C2)N1CCCCC1 (stereo unspecified) | 96.9 | 38.9 | 114.5 | 1.8 | i | 1 | ·
COCCC(=O)N(Cc1ccc2c(c1)OCO2)C(C(=O)NC1CCCCC1)c1ccncc1 (stereo unspecified) | 104.7 | · | · | 0.7 | i | 0.97 | -2.1
CCn1ncc(C2=NOC(C(=O)NCc3ccc(Cl)cc3)C2)c1C (stereo unspecified) | 102.3 | · | · | 2.2 | · | · | -0.5
O=C(Nc1ccc(S(=O)(=O)NC2=NCCCCC2)cc1)c1ccco1 | 102.8 | -42.9 | 116.2 | -3.8 | i | 0.98 | ·
CCOC(=O)c1sc(NC(=O)CSc2nc3c(cc2C#N)CCCCCC3)c(C#N)c1C | 103.3 | -54.5 | 119.0 | -10.4 | · | · | -1.2
O=C(O)COn1c(-c2ccc(Cl)cc2)nc2ccc(Cl)cc21 | 102.9 | 47.1 | 122.6 | 12.1 | i | 0.96 | ·
CCOC(=O)N1CCN(C(=S)NC(=O)c2cncc(Br)c2)CC1 | 23.5 | -41.7 | 105.6 | 5.1 | i | 0.7 | -0.6
Cc1csc(NC(=O)CSc2nnc(-c3ccoc3C)n2C(C)c2ccccc2)n1 (stereo unspecified) | 102.4 | · | · | · | i | 0.99 | ·
FC(F)(F)c1cccc(NC(=S)NNC(=S)Nc2cccc(C(F)(F)F)c2)c1 | 99.1 | · | · | · | i | 1.01 | ·
O=C(C1=C[C@H](c2ccc(Br)cc2)C[C@H](OCc2ccc(CO)cc2)O1)N1CCOCC1 | 102.8 | · | · | 5.4 | i | 0.89 | ·
CCOC(=O)C(NC(=O)CC)(Nc1ccc(S(N)(=O)=O)cc1)C(F)(F)F (stereo unspecified) | 94.8 | · | · | · | i | 0.71 | ·
C/C(=N\NS(=O)(=O)c1ccc(Cl)cc1)c1ccc(NC(=O)c2ccco2)cc1 | 113.1 | -14.3 | 100.8 | -7.8 | i | 1.07 | -1.5
CS(=O)(=O)Nc1cccc(C2=NN(S(C)(=O)=O)C(c3ccc4c(c3)OCO4)C2)c1 (stereo unspecified) | 100.7 | -17.6 | 80.7 | 5.5 | i | 0.93 | 0.8
O=C(/C=C/c1ccccc1)NCCOc1ccccc1 | 92.4 | -32.4 | 162.0 | 0.9 | i | 0.93 | 1.1
O=C1NC(=S)N/C1=C/c1cccn1-c1ccc([N+](=O)[O-])cc1 | 83.5 | · | · | 0.4 | i | 0.86 | ·
O=C(CN1C(=O)COc2ccccc21)NCCCN1CCN(Cc2ccccc2)CC1 | 99.9 | -5.3 | 109.4 | -3.1 | i | 0.82 | -2.6
COc1cc(NC(=O)COC(=O)C2CC2)c(C)cc1[N+](=O)[O-] | 102.2 | 6.7 | 93.8 | -8.4 | i | 0.96 | -0.9
O=C(NC1CCCC1)c1ccc(COCC(F)(F)F)o1 | 92.4 | -34.3 | 176.8 | -2.8 | i | 0.84 | -2.0
O=C(C1CCC(CNS(=O)(=O)c2cccs2)CC1)N1CCCCC1 (stereo unspecified) | 55.4 | 9.7 | 56.4 | 2.2 | i | 1.12 | -1.1
CC(NC(=O)CCN1C(=O)c2ccccc2C1=O)c1ccc2c(c1)CCCC2 (stereo unspecified) | 128.3 | 44.8 | 101.5 | -7.3 | i | 0.94 | -1.0
CC(CCc1ccccc1)NC(=O)CCNC(=O)Cn1ccc2ccccc2c1=O (stereo unspecified) | 100.8 | · | · | 4.8 | i | 0.95 | ·
COc1ccc(-c2nc3ccccc3c(=O)n2CCOc2ccc(C)cc2C)cc1 | 104.2 | · | · | -10.8 | i | 0.92 | 0.5
CCNC(=O)C(CCSC)NS(=O)(=O)c1ccc(C)cc1 (stereo unspecified) | 103.3 | · | · | · | i | 0.94 | ·
O=S(=O)(c1cc(Cl)cc(Cl)c1)N1CCCC1c1nc2ccccc2s1 (stereo unspecified) | 100.8 | 0.0 | 143.2 | 1.1 | i | 0.96 | -1.3
O=c1c(Cl)c(N2CCN(c3ccc(F)cc3)CC2)cnn1C12CC3CC(CC(C3)C1)C2 | 108.5 | 30.6 | 111.3 | 4.4 | i | 0.96 | 0.2
Cc1cccc(-c2noc(-c3c(C)noc3C)n2)c1 | 103.7 | · | · | · | i | 0.95 | ·
COc1cc2c(cc1OC)CN(C(=O)c1ccc(S(=O)(=O)N(C)c3ccccc3)cc1)CC2 | 101.4 | · | · | 8.7 | i | 1.02 | ·
CNC(=O)c1ccc(N(Cc2ccccc2C)S(C)(=O)=O)cc1 | 97.3 | 14.3 | 100.3 | -6.8 | i | 0.77 | -0.4
CCN1CCN(Cc2nc(N)nc(Nc3ccc(C)c(C)c3)n2)CC1 | 141.3 | · | · | -3.6 | i | 0.78 | -3.3
CCCCN(CC)Cc1c(O)ccc2c3c(c(=O)oc12)CCC3 | 96.4 | · | · | · | i | 0.89 | ·
CC(C)CCOc1ccc(Cl)cc1CN1CCOCC1 | 95.9 | -28.6 | 103.1 | -6.9 | i | 0.88 | -1.2
CCOC(=O)N1CCN(Cc2nc3c(c(=O)[nH]c(=O)n3C)n2CCCc2ccccc2)CC1 | 98.5 | 27.3 | 117.3 | -4.2 | i | 0.93 | -0.2
COc1ccnc(CSC(N)=Nc2ccccc2OC)c1 | 111.3 | -33.3 | 94.6 | -1.2 | i | 0.997 | -4.3
CN(C)P(=NC(=O)COc1ccc(Cl)cc1Cl)(N(C)C)N(C)C | 97.7 | · | · | 1.0 | i | 0.93 | -0.4
Cc1cc(O)c(-c2cc(C(=O)Nc3sc4c(c3C(=O)NCc3ccco3)CCC4)[nH]n2)cc1C | 88.4 | · | · | · | i | 0.72 | ·
COc1ccc(OC)c(CNC(=O)CCNC(=O)Cn2ccc3ccccc3c2=O)c1 | 105.5 | · | · | 12.7 | i | 1.04 | -1.6
CC12CN3CC(C)(CN(C1)C3c1cc(Br)ccc1O)C2=O (stereo unspecified) | 98.6 | -44.4 | 70.9 | -2.5 | i | 0.91 | 0.1
COc1cc2c(cc1OC)C(Nc1ccccc1)=NC(C)(C)C2 | 108.2 | 42.9 | 179.3 | -9.3 | i | 1.07 | -0.9
O=C(Nc1sc2c(c1C(=O)O)CCCC2)c1cccs1 | 105.3 | · | · | -8.0 | i | 0.9 | -0.7
CCC(c1nnnn1Cc1ccco1)N(CCc1ccccc1)Cc1cc2cccc(C)c2[nH]c1=O (stereo unspecified) | 98.3 | -42.5 | 89.6 | -5.0 | i | 0.93 | 0.9
COCCCNC(=O)C(C#N)c1nc2ccccc2nc1N1CCN(Cc2ccccc2)CC1 (stereo unspecified) | 95.3 | · | · | -7.6 | i | 1.01 | 0.2
CCOc1nc(Nc2cc(Cl)ccc2OC)nc(OCC)n1 | 110.0 | -4.8 | 81.8 | -6.7 | i | 0.99 | -1.2
Cc1ncn(C23CC4CC(CC(O)(C4)C2)C3)n1 | 100.5 | 14.3 | 91.3 | 1.2 | i | 1.04 | -1.0
COc1cc(/C=N/Nc2nc(C)nc3c2cnn3-c2ccccc2)ccc1O | 114.8 | · | · | -1.9 | i | 0.73 | ·
Cc1ccc(-n2c(N)c(C(=O)Nc3c(C)n(C)n(-c4ccccc4)c3=O)c3nc4ccccc4nc32)cc1 | 99.1 | 33.3 | 121.1 | 5.5 | i | 1.11 | -0.7
O=C(NC(=S)Nc1ccc(N2CCOCC2)cc1)c1ccc2c(c1)OCCO2 | 97.7 | 38.7 | 116.8 | -10.2 | i | 0.93 | -2.2
CC(Nc1cc(=O)n(C)c(=O)n1C)c1ccccc1 (stereo unspecified) | 101.3 | 0.0 | 113.3 | -7.1 | i | 0.97 | -0.1
N#C/C(=C\c1ccc(O)c([N+](=O)[O-])c1)C(=O)NCc1ccccc1 | 92.6 | · | · | -9.3 | i | 0.98 | ·
S=c1[nH]nc(Nc2ccccc2Cl)s1 | 102.1 | · | · | -0.6 | i | 0.9 | ·

(next part)
SMILES | RGS16-Gao | Insulin prom inh | Insulin prom inh cell count | PKD1 kinase inh | HSV augment | HSV augment primary fold | GALR2 agonist
O=C(CCSCc1ccccc1Cl)N1CCN(c2ccccn2)CC1 | 97.7 | 45.7 | 78.7 | -5.8 | i | 0.92 | -1.6
Cc1ccc(C2=NNC(c3cccc(F)c3)S2)cc1 (stereo unspecified) | 102.3 | -25.0 | 124.9 | -4.2 | i | 0.98 | ·
CCOC(=O)C1=NN(C(=O)c2cccc(Br)c2)C(O)(C(C)(C)C)C1 (stereo unspecified) | 100.9 | · | · | · | i | 1.01 | ·
CN(Cc1ccccc1)S(=O)(=O)c1ccc(NC(=S)NC(=O)C2CCCCC2)cc1 | 98.3 | · | · | 10.1 | i | 0.9 | 0.2
Cc1ccc(OCC(=O)NNC(=O)c2ccoc2C)c(Br)c1 | 95.7 | -26.9 | 73.2 | -10.8 | i | 1.09 | -0.7
Cc1ccc(NC(=S)NC(=O)c2sc3ccccc3c2Cl)c(C(=O)O)c1 | 98.5 | · | · | -3.6 | i | 0.97 | ·
CCC(=O)N1CCN(c2ccccc2NC(=O)Cc2ccccc2)CC1 | 102.8 | -45.2 | 118.6 | -1.2 | i | 0.9 | -1.8
C/C(=N/NC(=O)Nc1ccccc1)c1ccc(C)cc1 | 107.1 | 0.0 | 90.7 | -6.4 | i | 0.97 | -1.3
CC(=O)c1c(C)[nH]c(C2=NNC(=NCc3ccccc3)SC2)c1C | 99.5 | · | · | -1.4 | i | 1.02 | ·
CC(=O)N1CCc2c(sc3c2c(=O)n(-c2ccccc2)c(=O)n3Cc2ccccc2Cl)C1 | 103.4 | -53.6 | 97.1 | 4.8 | i | 0.99 | 0.7
CCN(CC(=O)Nc1ccc(NC(C)=O)cc1)C(=O)c1n[nH]c(=O)c2ccccc12 | 100.8 | · | · | 0.1 | i | 0.99 | ·
CC(=O)Nc1ccc(NC(=O)C(C)N2CCN(S(=O)(=O)c3ccc(C)cc3)CC2)cc1 (stereo unspecified) | 104.0 | · | · | -4.5 | i | 0.94 | ·
O=C1C=C(OCc2ccccc2)CN1 | 79.0 | 22.6 | 69.7 | -5.5 | i | 1.14 | -2.4
COc1ccc(CCn2nnnc2C(CC(C)C)N2CCN(c3ncccn3)CC2)cc1OC (stereo unspecified) | 103.0 | 7.1 | 160.3 | -6.1 | · | · | -2.8
O=C(/C=C/c1cccc([N+](=O)[O-])c1)Nc1cc(C(=O)O)cc(C(=O)O)c1 | 101.4 | -16.7 | 92.7 | -5.3 | i | 0.96 | ·
CO/N=C/CC(=O)c1cnc(-c2ccc(Cl)cc2)s1 | 95.8 | 66.7 | 130.9 | 1.2 | i | 1 | ·
O=C(O)COc1ccc(S(=O)(=O)NCCc2ccccc2)cc1 | 99.8 | · | · | -6.2 | i | 0.9 | -1.2
O=c1[nH]c2ccc(S(=O)(=O)N3CCCCC3)cc2[nH]c1=O | 89.8 | 38.9 | 159.5 | -7.8 | i | 0.57 | -1.8
O=C(CN1CCN(c2ccccc2)CC1)Nc1ccc2c(c1)OCCO2 | 103.0 | · | · | 1.9 | i | 1.01 | ·
COC(=O)C1CC(O)CN1C(=O)c1ccco1 (stereo unspecified) | 105.9 | -16.1 | 145.9 | 15.5 | i | 0.96 | -1.3
